AmpC inh no det – Promiscuous and Specific Inhibitors of AmpC Beta-Lactamase (assay without detergent). hit rate 1.8% among 71,000. AmpC nitrocefin hydrolysis, absorbance 480 nm, no detergent; potencies from a single point are estimates. Potency, µM (top dose mostly 28.7 µM), for inactives: at the highest dose activity change, negative = inhibition. P00811; active = falling curve, for most hits resting on a single point; inconclusive = weak or doubtful change; inactive = flat or rising curve; note: % of control where 0% means no effect; about half of the hits show no inhibition at the top dose; a quarter of the inactives give rising signals
Target sequence (P00811 whole entry, looked up): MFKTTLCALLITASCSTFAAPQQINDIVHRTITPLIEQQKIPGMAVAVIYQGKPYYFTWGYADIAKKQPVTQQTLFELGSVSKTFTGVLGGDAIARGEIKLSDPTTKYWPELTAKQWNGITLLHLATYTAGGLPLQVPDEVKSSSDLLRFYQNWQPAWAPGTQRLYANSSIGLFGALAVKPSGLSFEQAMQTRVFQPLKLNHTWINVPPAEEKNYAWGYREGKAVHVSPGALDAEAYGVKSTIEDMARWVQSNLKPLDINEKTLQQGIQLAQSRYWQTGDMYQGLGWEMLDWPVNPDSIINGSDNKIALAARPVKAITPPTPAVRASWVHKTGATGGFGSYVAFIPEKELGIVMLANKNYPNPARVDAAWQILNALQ
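AmpC in 20 mM phosphate buffer pH 7.0 was preincubated 15 min at room temperature with compounds. Nitrocefin (800 uM stock) was then added and hydrolysis followed at 480 nm every 20 s for 4 min.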
Numbers without * were called inactive; ? = inconclusive; [ ] = dose if it differs, or a comment. Potency is the fitted concentration of half-maximal effect. Some of the compounds tested; count on the stated rates, not on these rows.

structure | AmpC inh no det
O=C(CSc1nc2ccccc2c(=O)[nH]1)N1CCCCC1 | 4µM*[single pt active]
COc1ccc(N2C(=O)CCC2=O)cc1 | 3%
CCOC(=O)C1=C(N)Oc2ccc(Br)cc2[C@@H]1[C@@H](C#N)C(=O)OCC | 0%
CC1CN(C(=O)c2cc3cc(Cl)cc(Cl)c3oc2=O)CC(C)O1 (stereo not drawn) | 29%
COc1ccc(Cn2c3nc4ccccc4nc3c3c(=O)n(Cc4ccco4)c(C)nc32)cc1 | 73%
COC(=O)NCC(C)OC(=O)Nc1cccc(Cl)c1 (stereo not drawn) | 15%
COC(=O)c1ccc(CSc2nc3c(cnn3-c3ccc(Cl)cc3)c(=O)[nH]2)o1 | -17%
CCOC(=O)c1ccc(N2C(=O)c3n[nH]c(C)c3C2c2ccc(OC)cc2)cc1 (stereo not drawn) | 30%
CCCCOc1ccc(/C(O)=C2/C(=O)C(=O)N(CCCOC)C2c2ccncc2)cc1 (stereo not drawn) | -8%
O=C(c1ccco1)c1cn[nH]c1-c1ccc(Cl)cc1O | -9%
CN1C(=O)c2ccccc2N(C)C1c1cccs1 (stereo not drawn) | -4%
COc1ccc2[nH]c(=O)c(CN(C(=O)C3CCCO3)c3cccc(C)c3)cc2c1 (stereo not drawn) | 15%
Cc1cc(C(=O)OCC(=O)N2C(C)CCCC2C)c(C)o1 (stereo not drawn) | 21%
NCC(=O)O | 12%
COC(=O)[C@H](C)NC(=O)Nc1cccc(C(F)(F)F)c1 | -1%
CC(C)(C)C(=O)C1C(=O)c2ccccc2C1=O | -18%
COc1ccc(N2CC(C(=O)Nc3ccc(F)cc3F)CC2=O)cc1 (stereo not drawn) | 13%
O=C(C1CC1)N1CCc2cc(S(=O)(=O)N(CCO)Cc3ccccc3)ccc21 | 41%
COCC(C)NC(=O)c1ccc(N(C)C)cc1 (stereo not drawn) | 3%
c1cnc(N2CCN(Cc3c[nH]c4ccccc34)CC2)nc1 | 6%
O=C(Nc1ccc(NC(=O)C2CC2)nc1)c1cccc(F)c1 | -10%
CCOc1ccccc1C(=O)NCCC(=O)O | -13%
O=C(COc1ccccc1)N1CCN(c2nnc(-c3ccccc3)c3ccccc23)CC1 | 62%
CCN(CC)S(=O)(=O)c1cccc(C(=O)Nc2cccnc2)c1 | 4%
Cc1ccc(S(=O)(=O)CC(C)N2CCOCC2)c(S(=O)(=O)CC(C)N2CCOCC2)c1 (stereo not drawn) | 37%
CC(C)(Oc1ccc(Cl)cc1)C(=O)O | 1%
COc1cccc(-n2c(C)nnc2SCC#N)c1 | -9%
COc1ccccc1N1CCN(CCN(C(=O)c2ccc(F)cc2)c2ccccn2)CC1 | 53%
CN(c1ccc(C(=O)NCCC2=CCCCC2)cc1)S(C)(=O)=O | 23%
Cc1cc(=O)n2nc(N3CCCC(C(=O)NCc4ccco4)C3)sc2n1 (stereo not drawn) | 9%
Nc1nc2n(n1)C(c1ccccc1Cl)CC(c1ccc(F)cc1)N2 (stereo not drawn) | ?
COc1ccc(NC2c3ccccc3C(=O)N2c2cccnc2)cc1Cl (stereo not drawn) | ?
COc1ccc(-c2ccc(-c3nnn(CC(C)=O)n3)cc2)cc1 | 10%
CCOC(=O)c1ccc(NS(=O)(=O)c2ccc(SC)cc2)cc1 | -19%
O=S(=O)(c1cccc(-c2nn3c(-c4ccncc4)nnc3s2)c1)N1CCOCC1 | 7%
O=C(NCc1ccc2c(c1)OCO2)c1nn2cccnc2c1Cl | -3%
CC(=O)n1cc(C2C(=O)CC(C)(C)CC2=O)c2ccccc21 | -4%
CCOC(=O)C(NC(C)=O)(N1CCOCC1)C(F)(F)F (stereo not drawn) | -4%
O=[N+]([O-])c1ccc(O)c([N+](=O)[O-])c1 | -3%
CCOC(=O)c1sc2nc3n(c(=O)c2c1C)CCC(C)CC3 (stereo not drawn) | 61%
COC(=O)N1[C@H](C)C=C[C@]1(Cc1ccccc1)C(=O)NCc1ccc(N(C)C)cc1 | 98%
CCNc1nc(NC(C)C)nc(N(C#N)CCOc2ccc(Cl)cc2Cl)n1 | -7%
N=c1sccn1CC(=O)Nc1ccc2c(c1)CCC2 | -1%
CCOC(=O)N1CCC(N2CC34C=CC(O3)C(C(=O)Nc3ccc(OCC)cc3)C4C2=O)CC1 (stereo not drawn) | 46%
C1=CC2C3C=CC(C3)C2C1 (stereo not drawn) | 0%
COc1cc(C(=O)NCc2nnc(SCC(=O)N3CCc4ccccc43)o2)cc(OC)c1OC | 66%
COc1ccc2[nH]cc(CCNc3ccnc(-c4c(C)noc4C)n3)c2c1 | -2%
COc1ccc(-c2nc3oc4cc(OC)ccc4c(=O)c3c(=O)n2Cc2ccco2)cc1 | 43%
CCCc1nnc(NC(=O)c2cccc(OC)c2)s1 | 5%
O=C(NCCCN=C1NS(=O)(=O)c2ccccc21)c1ccc(S(=O)(=O)N2CCCCC2)cc1 | -4%

In the list so far, these contain a cyano group.
structure | AmpC inh no det
CCOC(=O)C1=C(N)Oc2ccc(Br)cc2[C@@H]1[C@@H](C#N)C(=O)OCC | 0%
COc1cccc(-n2c(C)nnc2SCC#N)c1 | -9%
CCNc1nc(NC(C)C)nc(N(C#N)CCOc2ccc(Cl)cc2Cl)n1 | -7%

Later entries.
structure | AmpC inh no det
COc1ccc(C(=O)OCn2nnc3ccccc3c2=O)cc1OC | 54%
COC(=O)C1CCN(c2cc(=O)n(-c3ccc(OC)cc3)c(=O)[nH]2)CC1 | 5%
O=c1[nH]c2sc3c(c2c2nncn12)CCCC3 | -12%
CC1CC(C)CN(CCCNC(=O)c2ccc3c(c2)NC(=O)C(N2CCCCC2)S3)C1 (stereo not drawn) | 54%
COCc1cc(C)nc2sc3c(=O)oc(C)nc3c12 | 6%
COC(=O)CN(Cc1ccco1)S(=O)(=O)c1ccccc1 | 18%
CCOc1ccc(C2c3c(oc4ccccc4c3=O)C(=O)N2CCCN2CCOCC2)cc1OCC (stereo not drawn) | 94%
Cc1cn(C2CC3OCC3O2)c(=O)[nH]c1=O (stereo not drawn) | -9%
CSc1nsc(SC)c1NC(=O)Nc1ccccn1 | 0%
N#CCc1ccc(NS(=O)(=O)c2cccs2)cc1 | -2%
C=CCOC(=O)C1=C(C)OC(N)=C(C(=O)OCC)C12C(=O)N(CC(N)=O)c1ccccc12 (stereo not drawn) | 51%
COCCNc1ncnc2ccc(-c3c(C)noc3C)cc12 | 14%
CC(C)CCNC(=O)Cn1cc2c(n1)CCCCC2 | 17%
COc1ncc2nc(-c3ccc(Cl)cc3)c(=O)n(C[C@H]3CCCO3)c2n1 | 47%
O=C(O)c1cc2c(s1)CCCC2 | -9%
O=C(Cc1ccccc1)Nc1ccccc1N1CCN(c2ccccc2)CC1 | 0%
CCOC(=O)CSc1nc2ccccc2n1CC(=O)NC(C)(C)C | -7%
CN(C)CCNc1oc(COc2cccc(Cl)c2)nc1C#N | 2%
COc1cc(C2C(C#N)=C(N)Oc3n[nH]c(C)c32)cc2c1OCO2 (stereo not drawn) | -6%
N#Cc1ccc(COC(=O)CSc2nnc(C3CCCCC3)n2N)cc1 | 1%
Nc1cc(=O)[nH]c(SCC(=O)Nc2ccc(Br)cc2)n1 | -13%
CC(=O)NC(Cc1ccc(F)cc1)C(=O)O (stereo not drawn) | 0%
COc1ccc(Cn2nnc3c(=O)[nH]c(C4CCCN(C(=O)c5ccccc5)C4)nc32)cc1 (stereo not drawn) | 82%
O=C(COC(=O)c1n[nH]c2ccccc12)Nc1ccc(S(=O)(=O)N2CCCC2)cc1 | -5%
C[C@@H]1C=C[C@](Cc2ccccc2)(C(=O)O)N1C(=O)c1ccccc1 | -16%
OC(CN1CCCCC1)Cn1c(C(F)(F)F)nc2ccccc21 (stereo not drawn) | 1%
Cc1ccc(CNC(=O)CCCNC(=O)c2ccc(Cl)cc2)n1C | 58%
Cc1ccc(C)c(N2CCN(Cc3nnnn3C3CCCCC3)CC2)c1 | 109%
CCc1ccc(NC(=O)c2cc(-c3ccc(OC)cc3)on2)cc1 | -13%
CCOC(=O)C1C(=O)CC(C)(O)C(C(=O)OCC)C1c1ccc2c(c1)OCO2 (stereo not drawn) | 23%
COc1ccc(C(=O)Nc2cc(Cl)ccc2Cl)c(OC)n1 | 4%
CC(=O)c1ccc(OCC(C)C)c(CC(C(N)=O)C(N)=O)c1 | 11%
COC(=O)Cn1c(CN2CCOCC2)nc2c1c(=O)[nH]c(=O)n2C | 3%
COc1ccc(S(=O)(=O)N2CCN(c3cc(-c4ccccc4)nc4ncnn34)CC2)cc1 | 76%
CN1CC[n+]2cnc3ccccc3c21 | -6%
COc1cccc(-c2cc(C(=O)N3CCc4ccccc4C3)no2)c1 | 36%
O=C(COc1ccc(Br)cc1)N1CCN(C2CCCC2)CC1 | 63%
N#CCCn1c(=O)c(-c2ccc(F)cc2)nc2cnc(Oc3ccccc3)nc21 | 0%
N#CC1=C(N)C(C#N)(C#N)[C@H](c2ccncc2)[C@H]2CC3(CC=C12)OCCO3 | -6%
CCc1ccc(NC(=O)C2CC(=O)N=C(N)S2)cc1 (stereo not drawn) | -4%
O=C1c2ccccc2C(Nc2ccc(Cl)cn2)N1c1ccccn1 (stereo not drawn) | 4µM*[single pt active]
COc1ccc(N2CCN(Cc3nc4c(c(=O)n(C)c(=O)n4C)n3Cc3ccccc3C)CC2)cc1 | 94%
Cc1cc(C)nc(SCC(=O)Nc2ccc(S(=O)(=O)Nc3onc(C)c3C)cc2)n1 | 7%
COC(=O)Cn1c(CCS(=O)(=O)c2ccc(C)c(C)c2)nc2ccccc21 | 32%
c1nc(N2CC2)c2cnn([C@@H]3CCCCO3)c2n1 | 7%[5.75 µM]
CN1C[C@H](CO)C=C2c3cccc4[nH]cc(c34)C[C@@H]21 | -2%[12.8 µM]
O=C(C1COc2ccccc2O1)N1CCN(c2ccc(F)cc2)CC1 (stereo not drawn) | 40%
Cc1cccn2c(=O)c3cc(C(=O)NCc4cccnc4)c(=N)n(C(C)C)c3nc12 | 14%
CN(C)c1nc(SCC#N)nc(N(C)C)n1 | -6%
COc1ccc(C(CC(=O)O)NC(=O)c2ccccc2)cc1OC (stereo not drawn) | -2%

(continued)
structure | AmpC inh no det
COc1cccc(N2C(=O)Nc3ccccc3C2(O)C(=O)NCc2ccc3c(c2)OCO3)c1 (stereo not drawn) | -7%
COCCNC(=O)CN(c1cc(Cl)ccc1OC)S(C)(=O)=O | 2%
CCC(C)NC(=O)C1c2ccccc2C(=O)N1Cc1ccccc1OC (stereo not drawn) | 4%
Cc1ccc(OCc2nnc(SCC(=O)c3ccccc3)n2Cc2ccco2)cc1 | 5%
CCN(CCCNC(=O)c1c(C)cc(=O)oc1C)c1ccccc1 | 49%
COCCN1Cc2cccc(C(=O)Nc3ccc(C)c(C)c3)c2C1=O | 72%
CCCc1cc(=O)[nH]c(Nc2ccc(OC)c(Cl)c2)n1 | -10%
CC1CN(C(=O)c2ccc(C(=O)c3ccccc3)cc2)CC(C)O1 (stereo not drawn) | 21%
CCCn1c(CN2CCCCC2CC)nc2c1c(=O)n(C)c(=O)n2C (stereo not drawn) | -11%
Cc1ccc(-c2nn3nnnc3c3ccccc23)cc1 | 11%

Six compounds picked at random from the list so far:
structure | AmpC inh no det
COCCNC(=O)CN(c1cc(Cl)ccc1OC)S(C)(=O)=O | 2%
Cc1ccc(OCc2nnc(SCC(=O)c3ccccc3)n2Cc2ccco2)cc1 | 5%
COc1cccc(N2C(=O)Nc3ccccc3C2(O)C(=O)NCc2ccc3c(c2)OCO3)c1 (stereo not drawn) | -7%
CCCc1cc(=O)[nH]c(Nc2ccc(OC)c(Cl)c2)n1 | -10%
CCC(C)NC(=O)C1c2ccccc2C(=O)N1Cc1ccccc1OC (stereo not drawn) | 4%
COCCN1Cc2cccc(C(=O)Nc3ccc(C)c(C)c3)c2C1=O | 72%

The results go on.
structure | AmpC inh no det
CCOC(=O)c1cc(C)sc1N1C(=O)C2C3C=CC(C3)C2C1=O (stereo not drawn) | 22%
COc1ccc(-c2ccc(Nc3ccc(S(=O)(=O)N4CCCC4)cc3)nn2)cc1OC | 41%
Oc1cc(Cl)c(Cl)cc1Cl | -18%
O=C(O)c1nnsc1COCc1ccccc1 | 7%[5.75 µM]
OCCCBr | 10%
CCOCCCNS(=O)(=O)c1cc(Br)cc2c1N(C(=O)C1CC1)CC2 | 21%
COc1ccc(N2C(=O)C3CCCN3C2c2cccc(C)c2)cc1 (stereo not drawn) | 35%
Cc1cnc2cc(Cl)ccc2c1SCC(=O)O | -5%[5.75 µM]
CCC(C)c1ccc(NC(=O)CC(C)=O)cc1 (stereo not drawn) | 18%
O=C(CCN1CCN(c2ccccc2F)CC1)c1ccc(Br)cc1 | 16%
COc1ccccc1NC(=O)Cn1nc(C(F)(F)F)c2c1CCCC2 | 34%
COC(=O)Nc1sc2c(c1C(N)=O)CCCCCC2 | 8%
COC(=O)c1ccc2c(c1)N(Cc1nc(-c3ccc(Cl)cc3)oc1C)C(=O)C1CCCN21 (stereo not drawn) | 19%
O=C(CCc1nc(-c2ccccc2F)no1)N1CCC2(CC1)OCCO2 | 13%
CS(=O)(=O)Nc1cccc(-c2cncnc2Nc2ccccc2)c1 | 2%
O=C(NCC1COc2ccccc2O1)C1CCCN(S(=O)(=O)c2cccc3cccnc23)C1 (stereo not drawn) | 58%
Cn1c(C(=O)N2CCCc3ccccc32)cc2c(=O)n3ccccc3nc21 | 59%
C[C@@H](N)Cc1cnc[nH]1 | -5%
CCC(C)(C)n1nnnc1C(c1ccc(C)cc1)N1CCN(Cc2cccnc2)CC1 (stereo not drawn) | 120%

High-throughput results from PubChem.
